ALR inh = inhibitors of human sulfhydryl oxidase ALR; AID 485317; P55789; 290,000 compounds, 3.8% hits; inhibition, % (test concentration not listed); purified ALR, DTT oxidation, H2O2 HRP-luminol luminescence;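 active means mean and each replicate at 75% or more; inconclusive means only one of the two met; inactive means neither met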;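 further: stock transfer was 7.5 nL into about 7.5 µL; 0% = neutral wells and 100% = wells with inactivated enzyme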
Target sequence (P55789 whole entry, looked up): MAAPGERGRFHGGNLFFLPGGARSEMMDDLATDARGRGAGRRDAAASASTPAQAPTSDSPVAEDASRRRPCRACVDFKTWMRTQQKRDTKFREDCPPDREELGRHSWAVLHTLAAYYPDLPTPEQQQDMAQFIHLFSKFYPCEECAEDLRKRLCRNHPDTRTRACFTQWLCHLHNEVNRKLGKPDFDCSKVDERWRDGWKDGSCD
Ecoli growth = inhibitors of Escherichia coli growth; 330,000 compounds, 0.21% hits; AID 1053175; OD600 absorbance (concentration not given with the values); OD600, 23 h; stronger effect = lower value;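 active means OD600 absorbance below the run mean of sample wells minus 3.6 SD, in any replicate, cut at about 0.56 in these data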;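 further: stock transfer was 300 nL into about 60 µL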
HNF4A DNA FP = change in binding of human HNF4 alpha to DNA; P41235; HNF4a-FITC DNA binding, fluorescence polarization, 1 h; activity change, % at 10 µM; 360,000 compounds, 0.3% hits; in the data active means activity change above about 30%, passing the limit was not always enough;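 further: controls were the assay level and a saturating level of protein; the project sought stronger binding though the title names inhibitors; some compounds called inactive have numbers as strong as hits; positive values seem to mean higher polarization but the record does not say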
Target sequence (P41235 whole entry, looked up): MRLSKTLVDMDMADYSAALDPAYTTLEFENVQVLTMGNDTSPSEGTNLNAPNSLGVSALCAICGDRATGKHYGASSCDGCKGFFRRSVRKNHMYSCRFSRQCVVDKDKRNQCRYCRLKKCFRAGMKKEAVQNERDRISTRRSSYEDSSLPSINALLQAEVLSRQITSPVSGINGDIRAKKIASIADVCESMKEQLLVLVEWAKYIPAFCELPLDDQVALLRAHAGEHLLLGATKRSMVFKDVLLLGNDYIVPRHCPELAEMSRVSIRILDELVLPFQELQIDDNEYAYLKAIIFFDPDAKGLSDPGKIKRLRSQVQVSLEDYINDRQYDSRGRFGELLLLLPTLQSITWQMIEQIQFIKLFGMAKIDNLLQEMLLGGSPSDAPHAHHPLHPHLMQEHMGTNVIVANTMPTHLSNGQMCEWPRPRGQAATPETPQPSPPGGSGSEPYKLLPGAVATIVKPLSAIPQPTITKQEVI
Ecoli rRNA inh = inhibitors of bacterial rRNA selective over humanized ribosomes | GFP signal change (wild-type ribosome), % (no concentration beside the values) | 350,000 compounds, 1.6% hits | AID 720706 | E. coli WT GFP vs humanized-ribosome RFP mutants, fluorescence, 24 h; stronger effect = lower value; DMSO median 0, no signal -100;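 active means significant combined selectivity score with lowered wild-type GFP, culture density cut under 30%, mutant RFP and density less affected; inactive means any of these conditions unmet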; further: one replicate is shown; some compounds called inactive have numbers as strong as hits
FGF22 binding = FGF22 (human) thermal shift binding | Q9HCT0 | recombinant FGF22 thermal shift, SYPRO orange fluorescence; percent of sucrose octasulfate shift, DMSO zero | calls only at 9.99 µM | 340,000 compounds, 1.5% hits;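 active means melting point raised past a set limit in the mean and every replicate; inconclusive means no clear call; three in four hits are not shown here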
Target sequence (Q9HCT0 whole entry, looked up): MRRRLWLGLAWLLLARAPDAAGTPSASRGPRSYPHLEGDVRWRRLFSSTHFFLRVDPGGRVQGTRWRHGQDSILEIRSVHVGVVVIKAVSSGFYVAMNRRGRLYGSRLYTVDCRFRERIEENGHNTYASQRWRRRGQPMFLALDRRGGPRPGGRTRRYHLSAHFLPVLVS
AF4-AF9 inh = inhibitors of human MLL-AF4/AF9 interaction | 350,000 compounds, 0.47% hits | AID 651704 | P42568 | inhibition, % at 10 µM | AlphaScreen, biotin-AF4 peptide binding to FLAG-AF9;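 active means every replicate reaching a set inhibition limit, whatever the replicate mean, cut at about 25% in these data; inconclusive means mean inhibition reaches that limit but some replicates miss it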;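 further: 0% = plate neutral control median and 100% = total signal loss; the record names both 10 and 1 µM as test concentration; the first replicate is given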
Vif TR-FRET = HIV-1 Vif–A3G interaction blockers – biochemical, TR-FRET, GST-Vif 1-94, biotin-A3G peptide, dose response retest, primary screen (AID 1117319) | inhibition, %; hits with a dose series show IC50 in µM | TR-FRET GST-Vif / biotin-A3G peptide binding; higher % means a stronger effect; test concentration not given here; strong numbers were not always called active | 260,000 compounds, 0.57% hits;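 active means above the screen mean plus three standard deviations and confirmed in dose response; inconclusive means results disagree or hit not tested in dose response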;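 further: Vif residues 1-94 fused to GST binding biotinylated APOBEC3G peptide 110-148; 0% = full assay without inhibitor and 100% = GST in place of GST-Vif; retest series ran down from 100 µM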
Ecoli rRNA inh OD600 = recorded beside Ecoli rRNA inh, whose call it bears; OD600 change, %; measured here: OD600 growth;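 optical density of the mix in the first replicate; 0 = DMSO median and -100 = no signal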
Ecoli rRNA inh RFP = further read-out of Ecoli rRNA inh, marked with its call; RFP signal change, %; measured here: RFP humanized mutant strains;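 first replicate; 0 = DMSO median and -100 = no signal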
* = called active by the depositor; i = inactive; ? = inconclusive; . = no result given; + = active, no number.

Molecule,Ecoli rRNA inh,Ecoli rRNA inh RFP,ALR inh,HNF4A DNA FP,Ecoli rRNA inh OD600,Ecoli growth,AF4-AF9 inh,FGF22 binding,Vif TR-FRET
COc1ccc(C(=O)NN2CCOCC2)cc1[N+](=O)[O-],12,2.2,1,3.7,11,0.7,-0.2,i,-3%
CC(NC(=O)CCCOc1ccc(Cl)cc1)c1ccccc1 (centres undefined),.,.,-4,-1.1,.,0.67,.,.,0%
Cc1ccc(CCNS(=O)(=O)c2cc(Br)cnc2N)cc1,-4,1.4,5,1.2,3,0.67,-2.7,i,.
COCC(=O)Nc1ccc2c(c1)OC[C@@H](C)N(C)C[C@@H](C)[C@H](OC)CN(C)C2=O,-1,-1.7,.,.,7,.,-1.3,i,.
C[C@H]1CN([C@@H](C)CO)C(=O)c2cc(C3=CCCCC3)cnc2O[C@@H]1CN(C)CC1CCOCC1,2,-1.6,.,.,0,.,-1.0,i,.
CC(C)[C@@H]1Cc2[nH]c(=S)[nH]c(=O)c2[C@H](C)O1,10,0.6,.,5.6,5,.,0.7,i,.
Cc1ccccc1OCc1nc2ccccc2c(=O)n1/N=C/c1c[nH]c2ccccc12,7,1.2,2,-2.4,3,.,3.4,.,-3%
CC(C)C#Cc1cnc2c(c1)C(=O)N([C@@H](C)CO)C[C@H](C)[C@@H](CN(C)S(=O)(=O)c1cn(C)cn1)O2,0,-0.6,.,.,-1,.,-1.2,i,.
CCCN(c1ccc(OCC)cc1)c1ncnc2nc[nH]c12,-11,-1.5,-9,0.3,-23,0.67,-14,i,-2%
CC(=O)Nc1ccc(C2=NN(CC#N)C(=O)SC2)cc1,.,.,12,-2.9,.,0.68,.,.,-3%
O=C(Nc1ccccc1N1CCCCC1)c1cccc(OC(F)F)c1,-9,-3.9,-8,-1.5,-2,0.64,-3.7,.,.
C[C@@H]1CN([C@H](C)CO)C(=O)c2cc(NC(=O)CCC(F)(F)F)ccc2O[C@@H](C)CCCCO[C@H]1CN(C)Cc1ccc(Cl)c(Cl)c1,3,2.0,.,.,-6,.,-3.3,i,.
COc1ccc(C(C)=O)cc1COC(=O)c1cc(C)oc1C,.,.,27,1.6,.,0.68,.,.,17%
Cc1cccc(CN2C[C@]34C=C[C@@H](C[C@@H]3S2(=O)=O)O4)c1,-5,0.0,7,-2.3,-16,.,.,i,.
CC(=O)N(C(C)=O)c1ncc2c([nH]c3ccccc32)c1C#N,.,.,3,5.3,.,0.7,.,.,2%
CCOc1ccc(Oc2c(/C=N/NC(N)=O)c(C)nn2-c2ccccc2)cc1,-25,-3.5,-4,-1.4,-40,.,8.0,i,.
O=C(NCc1ccccc1)N1CCC(c2nc3ccccc3[nH]2)CC1,.,.,2,-0.4,.,0.7,.,.,1%
Cc1cc(N/N=C/c2ccccc2O)c2ccccc2n1,-51,-12,99*,4.5,-77,.,?,i,.
Cc1[nH]c2ccccc2c1C(=O)C(=O)NCc1nnnn1-c1ccc(F)cc1,9,0.2,.,-2.3,10,.,0.2,i,.
O=S(=O)(c1cc(Cl)ccc1Cl)N1CCN(Cc2ccco2)CC1,-14,-1.1,-16,-4.6,-14,0.71,5.5,i,-6%

Three structures from above, sorted by length of the SMILES, rising:
Molecule,Ecoli rRNA inh,Ecoli rRNA inh RFP,ALR inh,HNF4A DNA FP,Ecoli rRNA inh OD600,Ecoli growth,AF4-AF9 inh,FGF22 binding,Vif TR-FRET
CC(=O)N(C(C)=O)c1ncc2c([nH]c3ccccc32)c1C#N,.,.,3,5.3,.,0.7,.,.,2%
CCOc1ccc(Oc2c(/C=N/NC(N)=O)c(C)nn2-c2ccccc2)cc1,-25,-3.5,-4,-1.4,-40,.,8.0,i,.
Cc1cccc(CN2C[C@]34C=C[C@@H](C[C@@H]3S2(=O)=O)O4)c1,-5,0.0,7,-2.3,-16,.,.,i,.

Next entries follow.
Molecule,Ecoli rRNA inh,Ecoli rRNA inh RFP,ALR inh,HNF4A DNA FP,Ecoli rRNA inh OD600,Ecoli growth,AF4-AF9 inh,FGF22 binding,Vif TR-FRET
COc1ccc(N2CC(C(=O)Nc3ccc(N4CCOCC4)cc3)CC2=O)cc1 (centres undefined),.,.,-6,1.5,.,0.67,.,.,9%
CC[C@H](C)[C@@H]1NC(=O)c2cc([N+](=O)[O-])cc(F)c2NCCCC[C@@H](C(N)=O)NC(=O)[C@H](CC(N)=O)NC1=O,3,2.8,-8,-2.7,2,.,-1.6,i,?
O=C(NC1CCCC1)C(c1cccs1)N(C(=O)c1csnn1)c1ccccc1F (centres undefined),12,2.1,-1,-1.9,11,0.69,-25,i,.
O=C(C[C@H]1C[C@@H]2c3cc(NC(=O)Nc4ccc(C(F)(F)F)cc4)ccc3O[C@@H]2[C@H](CO)O1)NC1CCCCC1,-3,1.5,.,.,-5,.,-1.2,i,.
COc1ccc(S(=O)(=O)Nc2cccc3c2O[C@@H](CN(C)C(=O)Nc2ccc(F)cc2)[C@H](C)CN([C@@H](C)CO)C3=O)cc1,1,-2.1,.,.,5,.,-1.6,i,.
Cc1ccc2nc(-c3ccccc3)c(NC(=O)c3ccco3)n2c1,.,.,23,1.5,.,0.65,.,.,8%
COc1ccc(-c2ccc3c(c2)O[C@H](CN(C)CC2CCOCC2)[C@H](C)CN([C@@H](C)CO)S3(=O)=O)cc1,-3,-1.8,.,.,-13,.,5.5,i,.
CCN1C(=O)[C@H]2[C@@H](c3ccc(C)cc3)N3C(=O)N(c4cccc(Cl)c4)C(=O)[C@@]3(CC(C)C)[C@H]2C1=O,4,-3.6,12,1.6,-5,.,2.6,i,.
C=CCn1c(=S)[nH]c2sc3c(c2c1=O)CCCC3,5,-0.5,49,-1.0,3,0.66,-12,i,.
CC(=O)Nc1cccc(OCc2ccc(S(=O)(=O)Cc3ccccc3)cc2)c1,.,.,1,0.4,.,0.68,.,.,.
COCCN1C=C2C(=O)C(C)(OC(=O)C3CCCC3)C(=O)C=C2C=C1c1ccsc1 (centres undefined),6,18,-83,2.5,9,0.68,-13,i,.
COc1cc(OC)c2c(-c3ccccc3)cc(=O)oc2c1C(CCN1CCCC(C)C1)c1ccc2c(c1)OCO2 (centres undefined),-9,13,-47,2.2,-30,0.7,32*,i,.
CC1(C)Cc2c(sc3c2C(=O)N(c2ccccc2)C2=NCCCN23)CO1,.,.,-14,4.5,.,0.65,.,.,1%
COc1ccc(NS(=O)(=O)c2cc(NC(=O)c3cccs3)ccc2N2CCOCC2)cc1,-21,-16,.,1.9,-30,0.69,-5.5,i,-7%
CCN(C(=O)c1cnc(OC)cc1C(F)(F)F)c1ccc(Cl)cc1,.,.,-7,-2.0,.,0.67,-2.2,i,2%
CCOc1ccc(NC(c2ccccn2)c2oc(CO)cc(=O)c2O)cc1 (centres undefined),-2,11,33,8.4,2,0.72,6.6,i,?
COc1ccc(-c2oc3c(OC)c(OC)c(OC)c(O)c3c(=O)c2OC)cc1OC,.,.,-6,-0.9,.,0.7,?,i,11%
CCOc1cc2[nH]c(=S)n(Cc3ccc(C(=O)NCCOC)cc3)c(=O)c2cc1OCC,.,.,-17,2.2,.,0.65,.,.,-3%
CCN(CC)S(=O)(=O)c1cccc(NC(=O)CNc2cccc(S(=O)(=O)N3CCOCC3)c2)c1,-5,-1.8,9,-1.6,-12,.,.,.,.
C#CCOCCOCCOCCNc1nc(N2CCOCC2)nc(N2CCN(C(=O)[C@H](CCC(=O)O)n3cc([C@@H](N)CCCCN)nn3)CC2)n1,-14,-1.5,-4,-2.5,-31,.,.,i,.
Cc1cccc(-c2nc(CNC(=O)c3ccco3)cs2)c1,-12,13,-2,3.8,-28,0.64,-5.0,i,15%
CCCC(=O)Nc1ccc2c(c1)C(=O)N(C)C[C@H](OC)[C@@H](C)CN(CCc1ccccc1)[C@@H](C)CO2,-5,1.3,.,.,-11,.,1.2,i,.
C[C@@H]1CN([C@H](C)CO)C(=O)c2cc(NS(=O)(=O)c3cccs3)ccc2O[C@H]1CN(C)Cc1ccc(C(F)(F)F)cc1,-4,-4.3,.,.,-39,.,2.4,i,.
CC/C(=N\NC(=O)CCC(=O)NCc1ccccc1)c1ccc(O)cc1,10,-2.1,99*,4.2,9,.,-2.3,.,2%
O=C(c1ccco1)N1CCN(C(=O)c2cccc3c2C(=O)N(Cc2cccnc2)C3)CC1,9,0.2,4,1.1,9,0.72,-1.7,i,2%
O=C(Nc1cccc(F)c1)c1cc(-c2ccco2)nc2ccccc12,2,3.8,6,-2.7,6,0.67,-2.2,i,.
C(#Cc1ccccc1)C[N+]1(CC#Cc2ccccc2)CCCCC1,-50,33,-3,1.3,-47,0.69,-3.3,i,0%
Cc1cc(C)cc(NC(=O)CSc2nnc(-c3cc(C)[nH]n3)n2N)c1,-1,1.6,-4,4.2,7,0.64,-0.6,i,.
CCOc1ccccc1NC(=O)CSc1nnc(CNC(=O)COc2ccc(Cl)cc2)o1,.,.,-1,-1.2,.,0.7,.,.,1%
O=S(=O)([N-]c1nc2ccccc2nc1-[n+]1ccc(CCCc2ccccc2)cc1)c1cccs1,43,12,-3,-9.7,16,0.69,-2.5,i,6%
C[C@H]1CN=C(Nc2ccccc2)N1CC1CCCCC1,3,13,2,-0.2,8,.,2.8,i,.
CCS(=O)(=O)NCCNc1ccc([N+](=O)[O-])cc1,-10,-2.9,-2,0.9,4,0.72,1.4,+,-5%
CCCN1C[C@@H](C)[C@H](OC)CN(C)C(=O)c2cc(NC(=O)NC3CCCCC3)ccc2OC[C@H]1C,-2,5.8,.,.,-1,.,1.2,i,.
O=S1(=O)N[C@H](Cc2ccccc2)COc2cc(N3CCSCC3)ccc21,-16*,5.0*,.,-3.1,-5.8*,.,-2.6,i,.
Cc1ccc(C(=O)Nc2ccc(Nc3ccccc3)cc2)cc1Br,-26,-12,-8,-0.1,13,0.66,-3.7,i,.
CC(C)Cc1ccc(S(=O)(=O)N2CCCC2)cc1,.,.,-1,1.4,.,0.63,.,.,8%
C(=N\Nc1nc(Nc2ccccc2)nc(N2CCCCC2)n1)/c1ccco1,-38*,-4.4*,0,.,-21*,.,?,i,7%
CCN(CC)S(=O)(=O)c1cc(NS(=O)(=O)c2cccc(Cl)c2)ccc1C,-9,4.3,-4,-2.4,-1,0.71,6.7,i,11%
COc1ccc(NC(=O)c2cccc(NC3=NC4CS(=O)(=O)CC4S3)c2)cc1Cl (centres undefined),3,-0.9,0,-0.1,11,0.7,-3.2,i,.
Cn1c(=O)[nH]c(=O)c2c1nc(CN1CCN(c3ccccc3F)CC1)n2CCc1ccccc1,4,-6.4,11,-3.5,8,0.77,6.8,i,.
O=C(Cc1cccnc1)N1CC2(C1)[C@H](c1ccccc1)[C@H](CO)N2C(=O)C1CC1,1,-3.9,.,.,6,.,-9.4,i,.
CCNc1nc(CC)nc2c1oc1ccccc12,.,.,-3,1.2,.,0.65,.,.,2%
CSCC[C@H](NC(=O)[C@H](Cc1ccccc1)n1c(=O)[nH]c2ccccc2c1=O)C(=O)N1CCC[C@@H]1C(=O)O,.,.,-6,3.5,.,0.71,-1.5,i,.

Compound activity (PubChem)

Not all compounds are listed. The share of hits here may be higher or lower than overall.
